Screening data deposited in PubChem by several laboratories.
RGS16-Gao HTS: regulators of human RGS16-Galphao interaction; O15492+P09471; bead-based flow cytometry RGS16-Galphao binding, fluorescence; actives lie on both sides; binding response (% of control), % at 10 µM; 220,000 tested, 0.38% active; AID 1441;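 active = below 25% or above 175%, edge rows of some plates excepted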;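 note: Galphao activated by GDP with aluminum fluoride before binding; 100% = wells without compound and 0% = beads without RGS; some results beyond the cut were filed as inactive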
Target sequence (O15492 whole entry, looked up): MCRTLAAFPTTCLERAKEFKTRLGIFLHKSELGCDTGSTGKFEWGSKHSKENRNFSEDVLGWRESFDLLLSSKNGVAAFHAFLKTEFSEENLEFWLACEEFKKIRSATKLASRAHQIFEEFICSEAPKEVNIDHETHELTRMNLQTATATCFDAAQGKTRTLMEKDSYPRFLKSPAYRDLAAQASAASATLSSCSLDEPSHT
Target sequence (P09471 whole entry, looked up): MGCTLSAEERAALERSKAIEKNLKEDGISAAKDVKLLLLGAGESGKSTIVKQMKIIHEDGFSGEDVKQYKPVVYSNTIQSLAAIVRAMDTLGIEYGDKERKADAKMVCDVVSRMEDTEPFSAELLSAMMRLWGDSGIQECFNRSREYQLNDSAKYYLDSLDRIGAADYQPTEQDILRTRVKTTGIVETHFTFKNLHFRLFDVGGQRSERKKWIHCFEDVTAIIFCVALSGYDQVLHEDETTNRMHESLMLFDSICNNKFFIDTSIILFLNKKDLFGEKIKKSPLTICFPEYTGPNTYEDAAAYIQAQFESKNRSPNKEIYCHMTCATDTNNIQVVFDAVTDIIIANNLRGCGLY
INS promoter inh: TRM-6 insulin promoter activity inhibition | TRM-6 cells (human fetal islet line), insulin promoter-eGFP reporter, imaging; reporter expression induced with tamoxifen | inhibition, % at 2 µM | 130,000 tested, 0.9% active;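 active = inhibition above the mean plus 3 SD, with well images judged a real hit on visual review, cut at about 60% in these data, passing the limit was not always enough; inconclusive = inhibition over the cutoff but images rejected on review; inactive = inhibition not above the cutoff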
HSV replic up: HSV replication enhancement. HSV replication augmentation in cells, fold increase. maximum fold increase. 220,000 tested, 0.005% active. AID 1956;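 active = peak rise of 1.5-fold or more in the series; inconclusive = self-fluorescent or not available for retest; tested in PC3 cells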;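 note: first round at 10 µM; read as green reporter fluorescence; hits show the peak of a series up to 25 µM; 1 = signal of infected wells without compound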
PKD1 inh: PKD1 (human) kinase inhibition. Q15139. PKD1 kinase fluorescence polarization assay. inhibition, %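 (about 10 µM by stock and volumes)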. 200,000 tested, 0.056% active. AID 797;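 active = inhibition of 50% or more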;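 note: controls were vehicle for no effect and a reference inhibitor for full effect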
GALR2 agonist: GALR2 (human) receptor agonism | O43603 | GALR2-expressing cells, agonist activation read-out | activation, %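 (tested at 5 µM)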 | 140,000 tested, 0.48% active;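 active = above mean plus 3 SD of all compounds, about 5% in these data, not always enough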;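 note: 0% = vehicle buffer wells and 100% = reference agonist at full effect; tested in CHO reporter cells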
Target sequence (O43603 whole entry, looked up): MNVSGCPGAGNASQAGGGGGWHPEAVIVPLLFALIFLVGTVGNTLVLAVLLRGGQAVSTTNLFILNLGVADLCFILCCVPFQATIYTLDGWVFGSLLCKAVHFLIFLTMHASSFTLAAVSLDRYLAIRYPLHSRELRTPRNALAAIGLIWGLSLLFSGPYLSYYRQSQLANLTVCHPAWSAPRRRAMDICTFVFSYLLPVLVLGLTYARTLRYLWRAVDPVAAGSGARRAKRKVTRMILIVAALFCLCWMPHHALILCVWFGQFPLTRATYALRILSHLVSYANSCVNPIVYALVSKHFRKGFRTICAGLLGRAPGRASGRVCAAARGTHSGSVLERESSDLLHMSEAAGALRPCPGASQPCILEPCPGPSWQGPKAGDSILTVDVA
INS promoter inh cell count: second read-out of INS promoter inh, no call of its own (marks repeat the call); normalized cell count, %; measured here: cell count, toxicity; reference of the scale not given here;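 cells exposed to compound for 48 h; stained nuclei by imaging scaled within each plate; lower means fewer cells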
HSV replic up primary fold: also measured in HSV replic up; calls as there; fold increase; compound at 10 µM; measured here: primary screen fold increase 10 uM; tested in PC3 cells;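 GFP signal in the first replicate; 1 = infected wells without compound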
An asterisk follows results filed as active; i = inactive; u = inconclusive; x = not tested or not shown.

Compound | RGS16-Gao HTS | INS promoter inh | INS promoter inh cell count | HSV replic up | HSV replic up primary fold | PKD1 inh | GALR2 agonist
Cc1nc(-c2ccc(S(=O)(=O)Oc3ccc(Cl)cc3Cl)s2)cs1 | 117.7 | x | x | i | 0.84 | x | x
CC(C)NC(=O)N1CCN(c2ccncc2S(=O)(=O)N2CCOCC2)CC1 | 104.1 | -18.4 | 110.6 | i | 0.85 | -2.7 | -1.1
O=C(NCc1cccnc1)c1cccc(F)c1 | 108.7 | x | x | i | 1 | -10.7 | -0.1
N#Cc1c(-c2ccco2)cc(-c2ccccn2)nc1N | 97.9 | x | x | i | 1.05 | 6.9 | -0.7
CCCCCCn1c(C)nc2c(c1=O)c1nc3ccccc3nc1n2/N=C/c1ccco1 | 98.8 | 25.0 | 197.4 | i | 1.01 | -0.3 | -1.0
O=C(CC(Nc1ccccc1)c1ccccc1)C1CC1 (stereo unspecified) | 107.1 | x | x | i | 1.08 | x | x
CCc1ccc(N2NC(=O)/C(=C/C=C/c3ccco3)C2=O)cc1 | 97.2 | -8.8 | 60.3 | i | 0.98 | -6.1 | 0.4
Cc1ccccc1NC(=O)C1(C)Cc2ccccc2C(=O)O1 (stereo unspecified) | 90.0 | 16.7 | 72.4 | i | 0.91 | 4.1 | -2.0
C/C(=N\N(Cc1ccccc1)c1ccccc1)c1cccnc1 | 103.4 | 16.7 | 132.1 | i | 1.16 | -3.0 | x
Cc1ccc(NC(=O)Cn2cnc3sc(C(=O)NCCN(C)C)c(C)c3c2=O)cc1Cl | 102.1 | 23.3 | 67.5 | i | 0.63 | -1.1 | -1.7
Cc1cc(NC(=O)CCCn2ccc([N+](=O)[O-])n2)n(Cc2ccc(F)cc2)n1 | 101.5 | x | x | i | 0.95 | -4.9 | x
CN(CC(=O)NC1CCCCC1)S(=O)(=O)c1cccc2cccnc12 | 94.7 | x | x | i | 0.82 | -2.1 | -1.3
O=C(c1ccc2nc(-c3ccccc3)c(-c3ccccc3)nc2c1)N1CCCCC1 | 93.3 | x | x | i | 0.93 | x | x
Cn1c(=O)c2c(Nc3ccc(F)cc3)cc(=O)n(-c3ccccc3)c2n(C)c1=O | 112.9 | x | x | i | 1.12 | x | x
CC(=O)NS(=O)(=O)c1ccc(NC(=O)CN2C(=O)C3C4C=CC(C4)C3C2=O)cc1 (stereo unspecified) | 89.4 | 17.9 | 118.9 | i | 0.95 | -6.7 | 0.9
CCOCCCN(C(=O)Cn1nnc2ccccc21)C(C(=O)NCc1ccco1)c1ccncc1 (stereo unspecified) | 100.3 | x | x | i | 0.85 | -1.8 | 0.2
CCN1C(=O)N/C(=C/c2ccc(C)o2)C1=O | 85.2 | x | x | i | 1.08 | -4.0 | -1.8
COc1ccc(S(=O)(=O)NC(C)(C)C)cc1-c1nnc2c3ccccc3c(C)nn12 | 97.5 | -10.3 | 68.6 | i | 0.83 | -6.2 | 3.6
O=C(Nc1cccc(-c2nc3ncccc3o2)c1)c1ccco1 | 101.6 | -53.6 | 100.6 | i | 0.89 | 9.2 | -0.7
COc1ccccc1N1C(=O)C2C3CC(c4ccccc4)C(C3)C2C1=O (stereo unspecified) | 106.8 | -3.7 | 107.6 | i | 0.86 | -6.8 | 0.7

Following part:
Compound | RGS16-Gao HTS | INS promoter inh | INS promoter inh cell count | HSV replic up | HSV replic up primary fold | PKD1 inh | GALR2 agonist
COCCN(Cc1cc2cc(C)c(C)cc2nc1Cl)C(=O)N1CCOCC1 | 94.2 | x | x | i | 0.98 | -3.5 | x
O=C(C1CCN(S(=O)(=O)c2cccc3nsnc23)CC1)N1CCCc2ccccc21 | 101.2 | 8.3 | 71.1 | i | 0.9 | 5.6 | -1.5
C/C(Cl)=C/Cn1c(NCCCn2ccnc2)nc2c1c(=O)[nH]c(=O)n2C | 101.0 | 23.7 | 165.2 | i | 0.977 | -1.8 | -2.6
CC(C)C(NS(=O)(=O)c1cccc(C(F)(F)F)c1)C(=O)O (stereo unspecified) | 99.1 | x | x | i | 0.99 | x | x
CCN1C(=O)CC2(C[N+]3(C)CCC2CC3)C1=O (stereo unspecified) | 97.0 | -6.7 | 62.2 | i | 1.03 | -14.4 | -1.2
Cc1c(C(=O)NCCN2C(=O)S/C(=C\c3cccs3)C2=O)cccc1[N+](=O)[O-] | 109.7 | -26.7 | 78.7 | i | 0.7 | 8.8 | -2.3
COc1ccc(N(CC(=O)NCCSC2CCCCC2)S(C)(=O)=O)c(OC)c1 | 97.6 | x | x | i | 0.91 | -8.1 | -1.1
Cc1nnc2sc(-c3ccc(NC(=O)CSc4ccc(Cl)cc4)cc3)nn12 | 100.1 | 16.7 | 188.7 | i | 0.84 | -0.2 | -2.1
Cc1cccc2c1-c1sc(C(=O)Nc3ccccc3N3CCN(C)CC3)cc1CO2 | 102.6 | x | x | i | 0.82 | x | x
O=[N+]([O-])c1ccc(N2CCN(CCO)CC2)c2ncccc12 | 101.2 | x | x | i | 0.82 | -8.7 | 1.3
COc1cccc(NS(=O)(=O)c2ccc(S(=O)(=O)N3CCOCC3)cc2)c1 | 104.2 | 9.1 | 128.6 | i | 0.95 | 8.9 | -0.7
COc1ccc(Cn2nnnc2C(c2ccccc2)N2CCN(C3CCCC3)CC2)cc1 (stereo unspecified) | 100.4 | x | x | i | 0.99 | -7.9 | 0.1
CC1CC(C)CN(c2ncc3c(n2)CC(c2ccccc2Cl)CC3=O)C1 (stereo unspecified) | 99.7 | x | x | i | 0.93 | 0.5 | -1.1
FC(F)(F)c1ccccc1NC(=S)N/N=C1\CC2CC=CC12 (stereo unspecified) | 99.0 | x | x | i | 1.09 | 4.4 | x
CCOC(=O)c1c(SC)[nH]c2c(Cl)cccc2c1=O | 88.8 | x | x | i | 0.87 | x | x
CC(C)N1C(=O)C2C(C(=O)NCc3ccccc3)C3C=CC2(O3)C1C(=O)NC(C)(C)C (stereo unspecified) | 95.8 | -10.0 | 53.6 | i | 0.9 | 5.6 | -0.3
O=C(N/N=C/c1cccn1-c1ccc([N+](=O)[O-])cc1)C(O)c1ccccc1 (stereo unspecified) | 101.4 | 6.8 | 102.5 | i | 1.17 | 4.5 | 0.0
CN(C)c1nc2n(c(=O)n1)CCO2 | 174.4 | 28.6 | 122.3 | i | 0.92 | -2.1 | -0.7
Fc1ccccc1NC(=S)Nc1cccc2cnccc12 | 108.5 | 58.3 | 116.6 | i | 1.06 | -1.7 | x
C/C(=N/N1CCN(c2ccccn2)CC1)c1cccc([N+](=O)[O-])c1 | 96.3 | -13.9 | 110.9 | i | 0.91 | -1.7 | -0.1

3 structures out of the list, sorted by molar mass, lowest first:
Compound | RGS16-Gao HTS | INS promoter inh | INS promoter inh cell count | HSV replic up | HSV replic up primary fold | PKD1 inh | GALR2 agonist
COc1cccc(NS(=O)(=O)c2ccc(S(=O)(=O)N3CCOCC3)cc2)c1 | 104.2 | 9.1 | 128.6 | i | 0.95 | 8.9 | -0.7
CC(=O)NS(=O)(=O)c1ccc(NC(=O)CN2C(=O)C3C4C=CC(C4)C3C2=O)cc1 (stereo unspecified) | 89.4 | 17.9 | 118.9 | i | 0.95 | -6.7 | 0.9
COc1ccc(N(CC(=O)NCCSC2CCCCC2)S(C)(=O)=O)c(OC)c1 | 97.6 | x | x | i | 0.91 | -8.1 | -1.1

New compounds follow
Compound | RGS16-Gao HTS | INS promoter inh | INS promoter inh cell count | HSV replic up | HSV replic up primary fold | PKD1 inh | GALR2 agonist
CCCCc1nc(SCC(=O)Nc2ccc(S(N)(=O)=O)cc2)n[nH]1 | 106.8 | 51.7 | 96.1 | i | 0.88 | -6.9 | -0.3
O=[N+]([O-])c1cccc2ccc(/C=C/c3cccc(Br)c3)nc12 | 105.4 | 38.7 | 131.5 | i | 0.88 | 4.3 | -0.3
CCOc1ccc(/C=N/NC(=O)c2cc(-c3ccco3)nc3ccccc23)cc1 | 60.1 | 38.5 | 146.2 | i | 0.66 | -6.3 | 0.8
O=C(O)/C=C/c1cn(Cc2ccccc2)nc1-c1cccnc1 | 98.7 | x | x | i | 0.8 | x | x
CC1CCN(c2cc(N3CCOCC3)c([N+](=O)[O-])cc2F)CC1 | 117.6 | 6.7 | 45.8 | i | 1 | 12.8 | -0.9
CCn1ccnc1[C@@H]1C[C@H]2CN(Cc3ccccc3OC)C(=O)[C@]23CCCN13 | 105.5 | x | x | i | 1.03 | -2.8 | x
CC(CCc1ccccc1)NC(=O)CN1C(=O)NC2(CCCCC2)C1=O (stereo unspecified) | 100.1 | x | x | i | 0.86 | 10.4 | x
O=C(COc1ccccc1[N+](=O)[O-])Nc1ccccc1N1CCCC1 | 111.4 | x | x | i | 0.75 | -8.7 | x
Cc1cccc(NC(=O)Cc2nnc(NC(=O)Nc3ccccc3F)s2)c1 | 100.1 | x | x | i | 0.82 | -5.6 | x
C=CCN(CC(=O)NCC1CCCO1)C(=O)CCC(=O)Nc1cc(C)on1 (stereo unspecified) | 103.5 | -43.8 | 75.4 | i | 0.977 | -9.4 | -1.9
COc1ccc(CCNC(=O)CCS(=O)(=O)c2ccc(C)cc2)cc1OC | 99.8 | x | x | i | 0.97 | 9.8 | -3.3
COc1cccc(CSc2nnnn2-c2ccc(O)cc2)c1 | 99.1 | x | x | i | 0.98 | -0.3 | x
CCCN(CCC)c1nc2ccccc2nc1C(C#N)C(=O)OCCOC (stereo unspecified) | -56.6 | -14.3 | 88.9 | i | 1.07 | -4.4 | -1.9
O=c1cc(O)nc(-c2ccccc2)s1 | 92.8 | x | x | i | 0.97 | -7.7 | x
CCCCC(CCC(=O)Nc1nccs1)C(=O)O (stereo unspecified) | 107.0 | 21.4 | 133.0 | i | 0.62 | -9.8 | -1.1
CCCCCCCCCOC(=O)C[n+]1csc(CCO)c1C | 107.2 | 16.7 | 84.6 | u | x | 3.0 | -3.3
CC(N=Cc1cccc(O)c1O)c1ccccc1 (stereo unspecified) | 75.6 | -69.6 | 40.1 | i | 0.91 | -3.3 | -2.5
COc1ccc(C(C)N2CC34C=CC(O3)C(C(=O)OCC(C)C)C4C2=O)cc1 (stereo unspecified) | 102.3 | x | x | i | 0.84 | 7.0 | -2.4
COCCn1c(=O)[nH]c(=O)c2c1nc(-c1ccc(-c3ccc(Cl)cc3[N+](=O)[O-])o1)n2Cc1ccccc1 | 105.9 | -46.7 | 95.0 | i | 0.82 | -0.1 | 1.1
CC(=O)c1cc(CN2CCN(C3CCN(C(C)C)CC3)C(CCO)C2)cs1 (stereo unspecified) | 101.3 | x | x | i | 1.42 | 3.8 | x

Continued:
Compound | RGS16-Gao HTS | INS promoter inh | INS promoter inh cell count | HSV replic up | HSV replic up primary fold | PKD1 inh | GALR2 agonist
CC(C)N1CCC(N2CCN(Cc3cc(F)ccc3-n3cccn3)CC2CCO)CC1 (stereo unspecified) | 114.5 | x | x | i | 1.02 | 3.6 | x
C/C(=N\NC(=O)c1cc(-c2ccccn2)nc2ccccc12)c1cccc([N+](=O)[O-])c1 | 93.3 | 0.0 | 125.9 | i | 0.83 | -7.4 | x
Cc1cc(=O)n2nc(N3CCCC(C(=O)N4CCOCC4)C3)sc2n1 (stereo unspecified) | 95.3 | -34.6 | 59.3 | i | 1.05 | -1.2 | -2.2
COc1ccc(CNC(=O)c2ccc(NC(=O)C3CCCO3)cc2)cc1 (stereo unspecified) | 137.6 | x | x | i | 0.86 | -5.4 | -2.6
Cc1ccc(NC(=O)CSc2nnc(COc3ccc(C#N)cc3)n2-c2ccccc2)cc1C | 163.6 | -41.7 | 121.0 | i | 0.97 | 0.0 | -2.1
COc1cc(/C=N/Nc2nc(N3CCCC3)nc(N3CCCC3)n2)ccc1O | 100.2 | 0.0 | 94.3 | i | 0.89 | 8.8 | -0.2
CC(C)(O)c1ccc2c(c1)CCC1C(C)(C(=O)O)CCCC21C (stereo unspecified) | 98.9 | x | x | i | 1.06 | x | x
Cc1ccc(C(C)C)c(OCCNC(=S)Nc2cccc3ccccc23)c1 | 104.0 | -48.1 | 102.8 | i | 0.94 | -0.2 | -2.6
Cc1ccc(CN2CCN(Cc3ccc(OC(C)C)cc3)CC2CCO)o1 (stereo unspecified) | 108.8 | x | x | i | 0.83 | -3.0 | x
CCOC(=O)CC1=NC(=O)CS1 | 102.7 | 3.9 | 125.6 | i | 1.02 | -8.8 | -0.9
COC(=O)c1ccccc1NC(=O)c1cc(C2CC2)on1 | 99.4 | x | x | i | 0.81 | -11.2 | 0.9
C=CCN(c1ccc(C(=O)Nc2cccc([N+](=O)[O-])c2)cc1)S(C)(=O)=O | 100.9 | x | x | i | 0.79 | 3.0 | x
COc1ccc(-c2[nH]ncc2CN(C)CCN2CCOCC2)cc1F | -4.7* | x | x | i | 0.9 | -3.3 | x
Cc1ccc2c(c1)nnn2C1CCN(CC(=O)NCCc2nc3ccccc3[nH]2)CC1 | 103.7 | x | x | i | 1.03 | -4.4 | -0.9
CN(Cc1cccs1)C(=O)Cc1csc(-c2ccccc2)n1 | 77.7 | -37.5 | 63.6 | i | 0.96 | -5.1 | x
